Env fusion inh = inhibitors of HIV-1 Env-driven cell-cell fusion, primary screen, HeLa-JRFL effector, CEM21 target cells, luciferase; inhibition, % at 12.3 µM; 1.1% of 360,000 active; AID 651610, 2012;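 active means mean replicate inhibition score of at least 50 and every replicate individually at or above 50; inconclusive means only one of the two criteria met; inactive means mean below 50 and not all replicates reaching 50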;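 further: 0% = plate neutral controls and 100% = maraviroc near 300 nM; one replicate is shown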
Yeast UUG start = modulators of yeast start codon fidelity, primary screen, whole organism, S. cerevisiae, single point, plate reader | S. cerevisiae UUG-firefly luciferase reporter, luminescence/redox ratio | AID 602363, 2012 | activity score, % at 18.7 µM | 0.13% of 350,000 active;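 active means replicate mean at a twofold rise or more, about +100% in these data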;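 further: firefly luciferase made from a UUG start codon reports start codon fidelity; reporter light over untreated wells divided by growth signal over untreated wells; some hits fall short of that in this replicate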
The depositor's hits bear a star; ? = inconclusive; [ ] = another dose, or the depositor's remark.

Env fusion inh	Yeast UUG start	molecule
19.8[16.7 µM]	-2.0	COC(=O)[C@@]1(CCS(=O)(=O)c2ccccc2)N=C(c2ccc(OCCCO)cc2)O[C@H]1c1ccccc1N=[N+]=[N-]
-7.8[16.7 µM]	-2.5	CCCNC(=O)N(C)C[C@H]1Oc2ncc(C#CC3CC3)cc2C(=O)N([C@@H](C)CO)C[C@H]1C
-7.2[16.7 µM]	3.7	C[C@H]1CN([C@@H](C)CO)C(=O)Cc2cc(NS(=O)(=O)c3ccccc3)ccc2O[C@H]1CN(C)S(=O)(=O)c1ccccc1
-6.1[16.7 µM]	-11.9	COCC(=O)Nc1ccc2c(c1)C(=O)N(C)[C@@H]1CC[C@@H](CC(=O)NCc3ccc(OC)cc3)O[C@H]1CO2
-5.2[16.7 µM]	-9.2	C[C@H](CO)N1C[C@H](C)[C@H](CN(C)C(=O)Cc2ccccn2)Oc2ncc(-c3ccncc3)cc2C1=O
-10.3[16.7 µM]	5.4	O=C(Nc1ccccc1)N[C@@H]1CC[C@@H](CCNC(=O)c2ccccc2F)O[C@H]1CO
-19.5[16.7 µM]	-15.2	O=C(C[C@H]1CC[C@H](NS(=O)(=O)c2ccccc2)[C@@H](CO)O1)NCc1ccncn1
12.2[16.7 µM]	1.4	C[C@@H]1CN([C@@H](C)CO)C(=O)c2cccc(NC(=O)c3ccc(-c4nccs4)cc3)c2O[C@H]1CN(C)Cc1ccc(C(=O)O)cc1
12.0[16.7 µM]	7.2	COc1ccc(S(=O)(=O)N[C@@H]2CC[C@H](CC(=O)N3CCN(c4ccccc4)CC3)O[C@@H]2CO)cc1
?	5.4	C[C@H]1CCCCO[C@H](CN(C)Cc2ccc(C(F)(F)F)cc2)[C@@H](C)CN([C@@H](C)CO)C(=O)c2cc(NC(=O)Cc3ccccc3)ccc2O1
-12.3[16.7 µM]	2.2	C[C@@H]1CCCCO[C@H](CN(C)C(=O)Nc2ccccc2)[C@@H](C)CN([C@H](C)CO)C(=O)c2cc(N(C)C)ccc2O1
-9.0[16.7 µM]	22.6	COc1ccc(CN(C)C[C@H]2OCCCC[C@H](C)Oc3ccc(NC(=O)Nc4c(C)noc4C)cc3C(=O)N([C@H](C)CO)C[C@@H]2C)cc1
13.5[16.7 µM]	-11.5	O=C(N[C@@H]1CC[C@H](CCNS(=O)(=O)c2cccc(Cl)c2)O[C@@H]1CO)c1ccncc1
2.5[16.7 µM]	-7.5	C[C@H]1CN([C@@H](C)CO)C(=O)c2cccc(NS(=O)(=O)c3ccccc3)c2O[C@H]1CN(C)S(=O)(=O)c1ccc(Cl)cc1
20.1[16.7 µM]	-6.5	COc1ccc(NC(=O)N(C)C[C@@H]2Oc3ccc(NC(=O)Nc4cccc5ccccc45)cc3C(=O)N([C@@H](C)CO)C[C@H]2C)cc1
-58.9[16.7 µM]	17.6	C[C@H](O)C#Cc1ccc2c(c1)O[C@@H](CN(C)C(=O)Nc1ccccc1)[C@@H](C)CN([C@H](C)CO)S2(=O)=O
-21.6[16.7 µM]	14.2	COCC#Cc1cnc2c(c1)C(=O)N([C@H](C)CO)C[C@@H](C)[C@@H](CN(C)C(=O)Nc1ccccc1F)O2
8.5[16.7 µM]	9.4	C[C@H](CO)N1C[C@H](C)[C@@H](CN(C)C(=O)Nc2cccc3ccccc23)Oc2ccc(NS(=O)(=O)c3ccc(F)cc3)cc2CC1=O
24.2[16.7 µM]	4.4	C[C@H]1CN([C@@H](C)CO)C(=O)c2cccc(NC(=O)c3ccc(-c4nccs4)cc3)c2O[C@H]1CN(C)Cc1ccc(-c2ccccc2)cc1
10.6[16.7 µM]	-22.5	CO[C@H]1CN(C)C(=O)c2ccc(NC(C)=O)cc2OC[C@@H](C)N(Cc2nccs2)C[C@@H]1C
-5.4[16.7 µM]	-1.0	C[C@H]1CCCCO[C@@H](CN(C)Cc2ccncc2)[C@@H](C)CN([C@@H](C)CO)C(=O)c2cc(NS(=O)(=O)c3cccs3)ccc2O1
-3.8[16.7 µM]	-14.7	COCCNC(=O)C[C@H]1CC[C@H](NC(=O)NC2CCCC2)[C@H](CO)O1
15.2[16.7 µM]	-5.4	Cc1noc(C)c1NC(=O)Nc1ccc2c(c1)C(=O)N([C@H](C)CO)C[C@H](C)[C@H](CN(C)C(=O)Nc1ccc3c(c1)OCO3)OCCCC[C@H](C)O2
13.2[16.7 µM]	10.2	C[C@H]1CCCCO[C@@H](CN(C)S(=O)(=O)c2cn(C)cn2)[C@@H](C)CN([C@@H](C)CO)C(=O)c2cc(NC(=O)C3CCCCC3)ccc2O1
-5.1[16.7 µM]	10.8	C[C@@H]1CN([C@H](C)CO)C(=O)c2cc(C3=CCCC3)cnc2O[C@H]1CN(C)Cc1ccccc1C(=O)O
0.3[16.7 µM]	-6.2	CCC(=O)N[C@@H]1CC[C@@H](CCn2cc(C3CC3)nn2)O[C@@H]1CO
-0.5[16.7 µM]	3.8	C[C@H](O)C#Cc1ccc2c(c1)O[C@@H](CN(C)C(=O)Cc1ccccn1)[C@H](C)CN([C@@H](C)CO)S2(=O)=O
0.4[16.7 µM]	4.6	C[C@H]1CN([C@@H](C)CO)C(=O)c2cc(C3=CCCC3)cnc2O[C@H]1CN(C)C(=O)NC1CCCC1
-15.3[16.7 µM]	-8.5	CCCC(=O)Nc1ccc2c(c1)C(=O)N(C)[C@@H]1CC[C@H](CC(=O)O)O[C@@H]1CO2
15.2[16.7 µM]	-9.8	C[C@H]1CN([C@@H](C)CO)S(=O)(=O)c2ccc(-c3ccccc3F)cc2O[C@@H]1CN(C)Cc1cncnc1
-55.9[16.7 µM]	-4.3	C[C@@H]1CN([C@@H](C)CO)C(=O)c2cc(-c3cccc(F)c3)cnc2O[C@@H]1CN(C)C(=O)C1CCOCC1
-26.8[16.7 µM]	-4.5	C[C@H](CO)N1C[C@H](C)[C@@H](CN(C)Cc2ccc3c(c2)OCO3)Oc2c(cccc2N(C)C)C1=O

Looked up above:
Value of C[C@H](CO)N1C[C@H](C)[C@@H](CN(C)Cc2ccc3c(c2)OCO3)Oc2c(cccc2N(C)C)C1=O in Env fusion inh: -26.8[16.7 µM]
Value of CCCC(=O)Nc1ccc2c(c1)C(=O)N(C)[C@@H]1CC[C@H](CC(=O)O)O[C@@H]1CO2 in Yeast UUG start: -8.5

The results go on:
Env fusion inh	Yeast UUG start	molecule
-25.1[16.7 µM]	37.0	C[C@@H]1CCCCO[C@H](CN(C)Cc2ccncc2)[C@H](C)CN([C@@H](C)CO)C(=O)c2cc(NC(=O)CCC(F)(F)F)ccc2O1
12.9[16.7 µM]	9.9	Cc1noc(C)c1NC(=O)N(C)C[C@H]1Oc2ncc(C#CCC(C)C)cc2C(=O)N([C@@H](C)CO)C[C@H]1C
-0.9[16.7 µM]	6.8	O=C(NCC[C@H]1CC[C@H](NC(=O)C2CC2)[C@@H](CO)O1)c1cc(Cl)cc(Cl)c1
4.4[16.7 µM]	40.0	CCCN(C)C[C@@H]1OCCCC[C@@H](C)Oc2ccc(NC(=O)Nc3ccc(F)cc3)cc2C(=O)N([C@H](C)CO)C[C@H]1C
-24.5[16.7 µM]	2.1	C[C@H]1CN([C@@H](C)CO)C(=O)c2cc(C#CCN(C)C)cnc2O[C@@H]1CN(C)S(=O)(=O)c1cn(C)cn1
-20.6[16.7 µM]	-3.8	O=C(Cc1ccccn1)NCC[C@@H]1CC[C@@H](NC(=O)Nc2ccc(F)cc2)[C@H](CO)O1
-4.6[16.7 µM]	-5.9	O=C(Cc1ccncc1)NCC[C@H]1CC[C@H](NS(=O)(=O)c2ccccc2Cl)[C@@H](CO)O1
-12.0[16.7 µM]	-17.6	N#C[C@H]1[C@@H](c2ccc(C#CC3CCCCC3)cc2)[C@H](CO)N1S(=O)(=O)c1ccccc1
-11.4[16.7 µM]	-3.7	Cc1noc(C)c1NC(=O)Nc1ccc2c(c1)CC(=O)N([C@H](C)CO)C[C@@H](C)[C@@H](CN(C)CC1CC1)O2
-6.0[16.7 µM]	-29.7	C[C@@H]1CN([C@H](C)CO)C(=O)c2cc(-c3ccc(C#N)cc3)cnc2O[C@H]1CN(C)Cc1ccccn1
-3.6[16.7 µM]	15.6	COc1ccc(S(=O)(=O)Nc2ccc3c(c2)C(=O)N([C@@H](C)CO)C[C@@H](C)[C@H](CN(C)Cc2ccc4c(c2)OCO4)OCCCC[C@@H](C)O3)cc1
7.4[16.7 µM]	-6.7	CN(C)C(=O)C[C@@H]1C=C[C@@H](NS(=O)(=O)c2ccccc2)[C@@H](CO)O1
-6.4[16.7 µM]	-12.2	COc1ccc(S(=O)(=O)N(C)C[C@H]2Oc3c(NS(=O)(=O)c4cn(C)cn4)cccc3C(=O)N([C@H](C)CO)C[C@H]2C)cc1
11.7[16.7 µM]	-27.9	O=C(C[C@@H]1C[C@H]2c3cc(NS(=O)(=O)c4ccc(F)cc4)ccc3O[C@H]2[C@H](CO)O1)NCc1ccccn1
7.6[16.7 µM]	24.9	CNC[C@@H]1OCCCC[C@H](C)Oc2ccc(NS(=O)(=O)c3ccccc3)cc2C(=O)N([C@H](C)CO)C[C@@H]1C
5.2[16.7 µM]	-12.3	CNC(=O)C[C@H]1CC[C@@H]2[C@H](COc3ccc(NC(=O)Nc4ccc(C)cc4)cc3C(=O)N2C)O1
-38.1[16.7 µM]	6.5	CC(C)NC(=O)Nc1ccc2c(c1)C(=O)N([C@@H](C)CO)C[C@@H](C)[C@@H](CN(C)S(=O)(=O)c1ccc(Cl)cc1)OCCCC[C@@H](C)O2
-18.7[16.7 µM]	47.2*	CN(C)C(=O)C[C@@H]1C[C@H]2c3cc(NC(=O)Nc4ccccc4F)ccc3O[C@H]2[C@H](CO)O1
3.5[16.7 µM]	-6.6	COCc1cn(CC[C@H]2CC[C@@H](NC(=O)c3ccncc3)[C@H](CO)O2)nn1
15.0[16.7 µM]	5.2	O=C(Nc1ccccc1F)N[C@@H]1CC[C@H](CCNC(=O)C2CCOCC2)O[C@H]1CO
72.9*[16.7 µM]	-1.5	Cc1ccc(S(=O)(=O)Nc2ccc3c(c2)CC(=O)N([C@@H](C)CO)C[C@@H](C)[C@H](CN(C)Cc2ccc(Oc4ccccc4)cc2)O3)cc1
-276.4[16.7 µM]	0.8	C[C@H]1CN([C@@H](C)CO)S(=O)(=O)c2ccc(-c3ccc(C#N)cc3)cc2O[C@@H]1CN(C)Cc1ccccn1
-7.3[16.7 µM]	4.5	CN(C)CC(=O)N[C@H]1CC[C@H](CCn2cc(C3CCCC3)nn2)O[C@H]1CO
8.2[16.7 µM]	-13.0	C[C@H]1CN([C@@H](C)CO)C(=O)c2cc(-c3cccc(F)c3)cnc2O[C@@H]1CN(C)Cc1cccnc1
-3.6[16.7 µM]	-8.1	Cc1cc(C(=O)Nc2cccc3c2O[C@@H](CN(C)C)[C@@H](C)CN([C@H](C)CO)C3=O)n(C)n1
-13.5[16.7 µM]	-2.9	C[C@@H]1CCCCO[C@H](CN(C)CC2CCCCC2)[C@@H](C)CN([C@H](C)CO)C(=O)c2cc(NC(=O)CCC(F)(F)F)ccc2O1
-70.1[16.7 µM]	8.9	C[C@H](CO)N1C[C@H](C)[C@H](CN(C)C(=O)NC2CCCCC2)OCCCC[C@H](C)Oc2ccc(NC(=O)Nc3ccc(F)cc3)cc2C1=O
3.7[16.7 µM]	0.2	C[C@@H]1CN([C@@H](C)CO)C(=O)c2cc(NC(=O)c3ccncc3)ccc2O[C@@H](C)CCCCO[C@H]1CN(C)C(=O)c1ccccc1
11.7[16.7 µM]	4.2	COc1ccc(NC(=O)Nc2ccc3c(c2)CC(=O)N([C@@H](C)CO)C[C@@H](C)[C@@H](CN(C)S(=O)(=O)c2ccc(F)cc2)O3)cc1
-0.7[16.7 µM]	3.3	C[C@@H]1CN([C@@H](C)CO)S(=O)(=O)c2ccc(-c3cncnc3)cc2O[C@H]1CN(C)Cc1ccccn1
-3.8[16.7 µM]	-2.8	C[C@@H]1CN([C@@H](C)CO)C(=O)Cc2cc(NC(=O)Cc3cn(C)c4ccccc34)ccc2O[C@H]1CN(C)S(=O)(=O)c1ccc(F)cc1
-18.2[16.7 µM]	0.2	Cc1noc(C)c1S(=O)(=O)Nc1ccc2c(c1)C(=O)N([C@@H](C)CO)C[C@H](C)[C@H](CN(C)CC1CCCCC1)O2
-1.3[16.7 µM]	-1.2	C[C@@H]1CN([C@H](C)CO)C(=O)c2cc(NC(=O)Nc3ccc(C(F)(F)F)cc3)ccc2O[C@@H](C)CCCCO[C@@H]1CN(C)S(=O)(=O)c1ccccc1
-1.0[16.7 µM]	-9.6	COc1ccc(NC(=O)Nc2ccc3c(c2)C(=O)N([C@H](C)CO)C[C@@H](C)[C@H](CN(C)S(=O)(=O)c2cccs2)OCCCC[C@H](C)O3)cc1
-20.3[16.7 µM]	16.8	CCCC(=O)Nc1ccc2c(c1)C(=O)N(C)[C@@H]1CC[C@H](CC(=O)NCc3ccccc3F)O[C@@H]1CO2
-20.3[16.7 µM]	7.2	COc1ccc(NC(=O)Nc2ccc3c(c2)C(=O)N([C@@H](C)CO)C[C@H](C)[C@@H](CN(C)C(=O)Nc2ccc(F)cc2)O3)cc1
-10.0[16.7 µM]	7.9	COc1cccc(C#Cc2cnc3c(c2)C(=O)N([C@@H](C)CO)C[C@H](C)[C@@H](CN(C)C(=O)C2CCCCC2)O3)c1

Record cards (already shown):
COc1cccc(C#Cc2cnc3c(c2)C(=O)N([C@@H](C)CO)C[C@H](C)[C@@H](CN(C)C(=O)C2CCCCC2)O3)c1 as listed: Env fusion inh = -10.0[16.7 µM]; Yeast UUG start = 7.9
CCCC(=O)Nc1ccc2c(c1)C(=O)N(C)[C@@H]1CC[C@H](CC(=O)NCc3ccccc3F)O[C@@H]1CO2 as listed: Env fusion inh = -20.3[16.7 µM]; Yeast UUG start = 16.8

Source: PubChem

These rows are one share of the data, so the mix of outcomes need not match the whole.
